RGS16-Gao – modulators of RGS16 binding to Galphao, primary screen, biochemical, human proteins, multiplexed bead flow cytometry; Regulator of G-protein signaling 16 (Homo sapiens) + Guanine nucleotide-binding protein …; binding response (% of control), % at 10 µM; 220,000 tested, 0.38% active; bead-based flow cytometry RGS16-Galphao binding, fluorescence; actives lie on both sides;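 active = below 25% or above 175%, edge rows of some plates excepted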;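 also: Galphao activated by GDP with aluminum fluoride before binding; 100% = wells without compound and 0% = beads without RGS; some results beyond the cut were filed as inactive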
PKD1 inh – inhibitors of human PKD1 kinase, biochemical, fluorescence polarization; Serine/threonine-protein kinase D1 (Homo sapiens), Q15139; PKD1 kinase fluorescence polarization assay; inhibition, %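 (about 10 µM by stock and volumes)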; 200,000 tested, 0.056% active;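 active = inhibition of 50% or more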;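 also: controls were vehicle for no effect and a reference inhibitor for full effect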
Target sequence (Q15139 whole entry, looked up): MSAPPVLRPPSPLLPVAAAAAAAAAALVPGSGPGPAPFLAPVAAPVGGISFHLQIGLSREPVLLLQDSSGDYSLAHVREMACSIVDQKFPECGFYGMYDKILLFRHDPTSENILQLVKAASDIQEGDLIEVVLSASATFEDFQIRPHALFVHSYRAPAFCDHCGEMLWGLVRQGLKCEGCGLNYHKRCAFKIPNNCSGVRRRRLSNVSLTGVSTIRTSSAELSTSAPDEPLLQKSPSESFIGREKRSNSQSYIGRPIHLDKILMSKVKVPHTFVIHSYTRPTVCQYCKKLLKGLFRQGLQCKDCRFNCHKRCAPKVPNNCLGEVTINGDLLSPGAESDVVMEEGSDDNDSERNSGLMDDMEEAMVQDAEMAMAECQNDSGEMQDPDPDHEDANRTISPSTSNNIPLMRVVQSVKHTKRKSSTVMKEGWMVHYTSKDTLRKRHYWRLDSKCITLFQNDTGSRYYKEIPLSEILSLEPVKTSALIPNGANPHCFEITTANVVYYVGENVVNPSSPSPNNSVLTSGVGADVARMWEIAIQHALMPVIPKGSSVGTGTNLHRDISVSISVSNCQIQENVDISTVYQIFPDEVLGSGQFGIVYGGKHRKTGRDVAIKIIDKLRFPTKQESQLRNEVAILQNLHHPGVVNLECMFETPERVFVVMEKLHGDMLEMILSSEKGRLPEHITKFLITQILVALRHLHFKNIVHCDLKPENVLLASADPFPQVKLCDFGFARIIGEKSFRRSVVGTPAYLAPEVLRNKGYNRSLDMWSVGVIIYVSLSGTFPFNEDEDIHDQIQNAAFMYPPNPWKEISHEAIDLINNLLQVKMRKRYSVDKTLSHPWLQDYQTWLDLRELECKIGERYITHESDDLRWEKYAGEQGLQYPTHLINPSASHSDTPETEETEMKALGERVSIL
GALR2 ag – GALR2 receptor agonists, primary screen, cell-based; activation, %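 (tested at 5 µM)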; 140,000 tested, 0.48% active; GALR2-expressing cells, agonist activation read-out; AID 803, 2007; Galanin receptor type 2 (Homo sapiens), O43603;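 active = above mean plus 3 SD of all compounds, about 5% in these data, not always enough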;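 also: 0% = vehicle buffer wells and 100% = reference agonist at full effect; tested in CHO reporter cells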
HSV augment – enhancers of HSV replication in host cells, fold increase, host cell viability; HSV replication augmentation in cells; maximum fold increase; 220,000 tested, 0.005% active;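 active = peak rise of 1.5-fold or more in the series; tested in PC3 cells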;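 also: first round at 10 µM; read as green reporter fluorescence; hits show the peak of a series up to 25 µM; 1 = signal of infected wells without compound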
Insulin prom inh – inhibitors of insulin promoter-driven GFP, primary screen, imaging, TRM-6 cells (human fetal islet line), eGFP reporter, cell count | reporter expression induced with tamoxifen | inhibition, % at 2 µM | 130,000 tested, 0.9% active | AID 1273, 2008;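 active = inhibition above the mean plus 3 SD, with well images judged a real hit on visual review, cut at about 60% in these data, passing the limit was not always enough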
Insulin prom inh cell count – also measured in Insulin prom inh; calls as there; normalized cell count, %; measured here: cell count, toxicity; reference of the scale not given here;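 cells exposed to compound for 48 h; stained nuclei by imaging scaled within each plate; lower means fewer cells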
HSV augment primary fold – recorded beside HSV augment, whose call it bears; fold increase; compound at 10 µM; measured here: primary screen fold increase 10 uM; tested in PC3 cells;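 GFP signal in the first replicate; 1 = infected wells without compound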
* = called active by the depositor; i = inactive; / = not tested or not shown. Compounds were not picked by outcome; about 1.2% have a hit in one of these screens.

structure	RGS16-Gao	PKD1 inh	GALR2 ag	HSV augment	HSV augment primary fold	Insulin prom inh	Insulin prom inh cell count
COc1ccc(-c2cc(C(F)(F)F)nc(SCC(=O)NCc3cnn(C)c3C)n2)cc1OC	109	-5	-0.5	i	0.96	-47	69
CCCCNC(=O)C(=O)c1ccccc1NC(C)=O	100	-12	-1.3	i	0.94	-23	77
C/C(Cc1ccccc1)=N\NC(=O)CNC(=O)c1ccc(Br)cc1	100	-9	-0.3	i	0.88	14	68
COCCn1nnnc1C(c1cccs1)N1CCN(c2cccc(C(F)(F)F)c2)CC1 (stereo not drawn)	103	-4	0.6	i	0.89	/	/
COC(=O)c1ccccc1OCCCCN1CC(C)OC(C)C1 (stereo not drawn)	102	-16	-0.5	i	1	-6	112
NC(=S)n1[nH]c(-c2ccc([N+](=O)[O-])cc2)c(N=Nc2cccc([N+](=O)[O-])c2)c1=O	97	-2	/	i	0.67	/	/
C=C(C)Cn1c(N2CCC(Cc3ccccc3)CC2)nc2c1c(=O)[nH]c(=O)n2C	102	-2	0.3	i	0.99	7	159
CCOc1ccc(-n2c(-c3ccc(Cl)cc3)c[n+]3c2SCC3)cc1	98	0	/	i	1	/	/
Cc1nc2ccccc2nc1OCC(=O)Nc1ccc2ccccc2c1	99	-4	-0.9	i	0.71	-41	90
O=C(COC(=O)c1ccccc1NC(=O)c1ccco1)Nc1ccc2c(c1)OC(F)(F)O2	-43	2	-2.5	i	0.91	24	131
Cc1cc(C)nc(Sc2c(F)c(F)c(C(F)(F)F)c(F)c2F)n1	127	-9	-0.6	i	0.93	/	/
O=C(NCC1CCCO1)c1ccc(CNS(=O)(=O)c2ccc(F)c(Cl)c2)cc1 (stereo not drawn)	100	1	/	i	0.98	0	92

structure	RGS16-Gao	PKD1 inh	GALR2 ag	HSV augment	HSV augment primary fold	Insulin prom inh	Insulin prom inh cell count
C/C(=C\C(=O)C(F)(F)F)Nc1cc(C)cc(C)c1	103	6	-1.2	i	1	3	84
O=C(O)CCn1c2c(c3ccccc31)CCCC2	127	6	4.2	i	0.71	28	75
COc1ccc(NC(=O)CSc2ccccn2)cc1OC	102	-7	-2.3	i	0.94	31	72
COc1ccccc1CN1C(=O)CCC1(C)C(=O)NC1CCCCCC1 (stereo not drawn)	102	6	0.2	i	0.96	-70	89
COc1ccc(-c2nc(CN3CCN(c4ncnc5ccccc45)CC3)c(C)o2)c(OC)c1	105	-3	/	i	0.91	22	139
CC(C)(C)Nc1nc(Cl)nc(NCCN2CCOCC2)n1	94	/	/	i	0.97	/	/
C=CCN=C1SCC(=O)N1S(=O)(=O)c1ccccc1	143	-7	-1.5	i	1.1	-38	134
C=CCNC(=S)N1CCOCC1	98	3	/	i	1.1	/	/
C[N+]1(CCNC(=O)/C=N/O)CCCCC1	104	-12	-3.5	i	1.1	/	/
COC(=O)CC(NC(=O)c1ccco1)c1ccc(C(C)C)cc1 (stereo not drawn)	100	13	0.3	i	1	/	/
Cc1nnc(SCc2nc3sc4c(c3c(=O)[nH]2)CCCC4)n(N)c1=O	117	/	/	i	1.2	/	/
CC1CN(CC(O)COC2CCC(C(C)(C)C)CC2)CC(C)O1 (stereo not drawn)	95	-2	/	i	1	/	/

Look-ups from the results shown.
`O=C(O)CCn1c2c(c3ccccc31)CCCC2` – GALR2 ag = 4.2
`Cc1nnc(SCc2nc3sc4c(c3c(=O)[nH]2)CCCC4)n(N)c1=O` – RGS16-Gao = 117

Carrying on.
structure	RGS16-Gao	PKD1 inh	GALR2 ag	HSV augment	HSV augment primary fold	Insulin prom inh	Insulin prom inh cell count
CCCN(Cc1nnc(-c2ccccc2Cl)o1)C(=O)c1cc([N+](=O)[O-])cc([N+](=O)[O-])c1	102	-2	/	i	0.97	27	122
Cc1ccsc1/C=N/Nc1nc2ccccc2s1	108	-4	0.6	i	1	25	118
Cc1ccc(CNC(=O)CS(=O)Cc2nc(-c3ccccc3C)oc2C)cc1 (stereo not drawn)	100	-10	-2.6	i	1	/	/
c1ccc(-n2nnnc2Sc2n[nH]c(-c3ccncc3)n2)cc1	96	-10	-2.5	i	0.78	/	/
CCCCC(CC(O)COCC(C)C)C(=O)NNC(=S)Nc1ccccc1 (stereo not drawn)	98	0	-1.3	i	1	/	/
Cc1ccc(NC(=O)CN2CCC(NC(=O)Cc3ccccc3)CC2)cc1C	101	3	0.5	i	0.94	-7	64
Cc1[nH]c2ccccc2c1/C=N/Nc1nc(Nc2ccccc2)nc(N2CCOCC2)n1	97	-14	-2.2	i	0.59	-24	116
O=C(Cc1ccc(F)cc1)N/N=C/c1ccncc1	71	3	0.1	i	1.2	-37	67
O=C(c1ccc(-c2nnc(Nc3cccc(Cl)c3)c3ccccc23)cc1)N1C[C@H]2C[C@H](C1)c1cccc(=O)n1C2	91	0	-1.4	i	0.79	37	198
CC1(C)CC(=O)C(C=NCCN2CCN(C(=O)c3ccc(Br)cc3)CC2)=C(O)C1	67	6	0.9	i	0.84	25	123
CCn1ncc(Br)c1C(=O)Nc1ccc(F)cc1F	78	-12	-0.2	i	0.82	6	116
O=c1oc2ccccc2cc1-c1nc(-c2ccccc2)no1	105	6	-0.2	i	1.1	18	87

structure	RGS16-Gao	PKD1 inh	GALR2 ag	HSV augment	HSV augment primary fold	Insulin prom inh	Insulin prom inh cell count
COCCNC(=S)NC1CC2CCCC(C1)N2Cc1cccs1 (stereo not drawn)	100	-9	-1.1	i	1.1	25	73
CC(C)[C@H](NC(=O)c1ccc(F)cc1)C(=O)NC1=NCCS1	118	-1	/	i	0.87	-15	126
COc1ccccc1NC(=O)NCCN1CCN(C(=O)Nc2ccccc2OC)CC1	91	-2	/	i	1	-21	89
O=C(CCCC(=O)OCC(Cl)=C(Cl)Cl)Nc1cccc(F)c1	98	-6	-3.4	i	0.8	/	/
O=[N+]([O-])c1c(Nc2ccccn2)cc(Cl)c2nonc12	88	/	/	i	0.68	/	/
CC1CCCN(C/C=C/c2ccccc2[N+](=O)[O-])C1 (stereo not drawn)	100	-13	-0.7	i	0.78	/	/
Cc1c(NC(=O)c2ccc(S(=O)(=O)N3CCOCC3)cc2)c(=O)n(-c2ccccc2)n1C	84	/	/	i	1.1	/	/
COC(=O)C(C)(C)ONC(=O)Nc1ccc(Br)cc1	110	2	-2.3	i	1	38	81
CS(=O)(=O)N1CCN(C(=O)COc2ccccc2)CC1	107	0	/	i	0.97	/	/
CCc1ccc2[nH]c(=O)c(C(c3nnnn3CC3CCCO3)N3CCCc4ccccc43)cc2c1 (stereo not drawn)	105	-6	-1.1	i	0.98	/	/
NC(=S)NNC(=O)c1cccc(Cl)c1	92	/	/	i	0.9	/	/
O=[N+]([O-])c1ccccc1/C=N/N1CCN(c2ccc(Cl)cc2)CC1	104	-13	-4.0	i	1	-4	94

structure	RGS16-Gao	PKD1 inh	GALR2 ag	HSV augment	HSV augment primary fold	Insulin prom inh	Insulin prom inh cell count
CCCCn1nc(C(=O)Nc2nc3c(s2)CCCC3)c2ccccc2c1=O	105	-6	0.2	i	0.78	/	/
Cc1ccc(NC(=O)c2ccccc2F)cc1S(=O)(=O)N1CCCCCC1	116	1	/	i	1	0	51
Cc1ccc(C(=O)NCC(=O)OCC(=O)/C=C2\N(C)c3ccccc3C2(C)C)cc1C	105	-1	-0.4	i	1	7	90
CCCC1=NCCn2cccc21	113	-3	-1.1	i	0.87	5	118
CCOC(=O)c1ccccc1N=N/C(C(C)=O)=C(/C)O	106	0	-1.3	i	1	-21	74
Cc1cccc(NC(=O)c2sc(Cl)nc2C)c1C	103	6	0.9	i	0.89	-93	104
O=C(CCOc1ccccc1F)N1CCN(c2ccccc2O)CC1	95	8	/	i	0.98	0	76
Cn1c(=O)c([N+](=O)[O-])c(-n2cnc3ccccc32)c2ccccc21	106	/	/	i	0.9	/	/
Brc1ccc(COn2ccnc2)cc1	103	1	/	i	1	/	/
C/C(=N\OC(=O)C1CC1)C1CC1c1ccc(F)cc1 (stereo not drawn)	108	1	/	i	1	27	71
CC(C)(C)c1csc(NC(=O)c2ccncc2)n1	108	-6	/	i	1	58	39
CC1(C)Cc2c(c(N3CCOCC3)nc3snc(N)c23)CO1	77	1	-3.3	i	1	/	/

An excerpt from above, showing only HSV augment primary fold and HSV augment.
| SMILES | HSV augment primary fold | HSV augment |
| --- | --- | --- |
| CCCC1=NCCn2cccc21 | 0.87 | i |
| CCOC(=O)c1ccccc1N=N/C(C(C)=O)=C(/C)O | 1 | i |
| Cc1cccc(NC(=O)c2sc(Cl)nc2C)c1C | 0.89 | i |

Next structures.
structure	RGS16-Gao	PKD1 inh	GALR2 ag	HSV augment	HSV augment primary fold	Insulin prom inh	Insulin prom inh cell count
Cc1cc(C)nc(SCCn2c(N(C)Cc3ccccc3)nc3c2c(=O)n(C)c(=O)n3C)n1	100	-3	-0.7	i	1	-6	153
O=C(Nc1cccnc1)c1ccc(Cl)c(S(=O)(=O)N2CCCCCC2)c1	100	-2	-2.2	i	0.74	3	120
Cc1cc(=O)[nH]c(N/N=C/c2ccco2)n1	87	-9	-1.8	/	/	-14	80
COc1ccc(-n2c(SC)nc(O)c(Cc3ccccc3)c2=O)cc1	99	9	0.2	i	1.1	/	/
COc1ccc2cnn(-c3ccc(C)cc3)c(=O)c2c1OC	110	5	0.2	i	1	38	179
CCC(=O)/C=C1/Sc2ccccc2N1CC	100	2	-1.5	i	0.84	-329	64
CC(CCc1ccccc1)NC(=O)c1ccccc1 (stereo not drawn)	114	-2	-0.1	i	0.82	-41	91
CC(=O)c1c(COC(=O)c2ccncc2)nc2ccccc2[n+]1[O-]	80	0	-1.5	i	0.98	/	/
CCOc1cc(NC(=O)c2ccccc2[N+](=O)[O-])c(OCC)cc1NC(=O)CC(C)C	99	-1	-0.6	i	0.97	/	/
Cn1nc(-c2ccc(C(=O)O)cc2)c2ccccc2c1=O	98	-3	0.0	i	0.89	-21	50
CN(CC(=O)Nc1ccc(F)cc1)C(=O)COc1ccc(C(=O)c2ccccc2)cc1	108	10	-1.2	i	1	0	52
CC(C)OC(=O)CSc1nnc(CNc2ccc(Cl)cc2)n1C	111	-3	/	i	1	/	/

structure	RGS16-Gao	PKD1 inh	GALR2 ag	HSV augment	HSV augment primary fold	Insulin prom inh	Insulin prom inh cell count
COc1ccc(C(=O)Oc2cc3c4c(c2)C(C)=CC(C)(C)N4C(=O)C3=O)cc1OC	96	-9	-0.4	i	1.1	/	/
Cc1[nH]c2ccccc2c1C(=O)CSc1nccc(=O)[nH]1	94	/	/	i	1.1	/	/
O=C(NCC1CCCN(C(=O)NCc2ccccc2)C1)c1ccc2c(c1)OCO2 (stereo not drawn)	150	-4	/	i	1.1	-19	51
Cc1sc2ncnc(OCC(=O)NC(C)C)c2c1C	98	-9	-2.0	i	1	15	151
Fc1ccc(Cn2cc(C(=S)N3CCOCC3)c3ccccc32)cc1	104	/	/	i	0.94	/	/
Cc1ccc(NC(=O)N(CCC#N)Cc2ccccc2)cc1	109	/	/	i	1.1	/	/
O=c1[nH]c(NCCCO)nc2c1C1(CCCC1)Cc1ccccc1-2	106	-12	-0.9	i	1	30	106
Fc1ccc(NC(=S)NCCc2ccccn2)cc1	92	-5	/	i	0.92	/	/

Screening data: PubChem BioAssay, several laboratories
